Vif TR-FRET = inhibitors of Vif binding to APOBEC3G peptide, primary screen, biochemical, TR-FRET, GST-Vif 1-94, biotin-A3G peptide, dose response retest (AID 1117319). TR-FRET GST-Vif / biotin-A3G peptide binding; higher % means a stronger effect; test concentration not given here; strong numbers were not always called active. 260,000 tested, 0.57% active. inhibition, %; hits with a dose series show IC50 in µM;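 active means above the screen mean plus three standard deviations and confirmed in dose response; inconclusive means results disagree or hit not tested in dose response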;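 further: Vif residues 1-94 fused to GST binding biotinylated APOBEC3G peptide 110-148; 0% = full assay without inhibitor and 100% = GST in place of GST-Vif; retest series ran down from 100 µM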
LANA-H2A inh = blocks KSHV LANA binding to histone H2A/H2B; AID 2629; 320,000 tested, 0.6% active; cell-free LANA-H2A/H2B peptide, fluorescence polarization; inhibition, % (no concentration beside the values); Q9QR71; in the data active means inhibition mostly above about 10%, no sharp cut-off; inactive means mostly below about 6.7%;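 further: stock transfer was 7.5 nL into about 10 µL; 0% = median of vehicle wells and 100% = median of positive control wells; one replicate is shown; the record names a cut of 25% in any replicate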
UCH37 DUB inh = blocks the human deubiquitinase UCH37. Q9Y5K5. purified proteasome/UCH37, Ub-AMC cleavage fluorescence. AID 588478. 330,000 tested, 0.33% active. inhibition, % (test concentration not listed);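 active means mean of two replicates above 20%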;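 further: 0% = compound-free wells with enzyme and 100% = wells lacking proteasome; stock transfer was 100 nL into about 20 µL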
Target sequence (Q9Y5K5 whole entry, looked up): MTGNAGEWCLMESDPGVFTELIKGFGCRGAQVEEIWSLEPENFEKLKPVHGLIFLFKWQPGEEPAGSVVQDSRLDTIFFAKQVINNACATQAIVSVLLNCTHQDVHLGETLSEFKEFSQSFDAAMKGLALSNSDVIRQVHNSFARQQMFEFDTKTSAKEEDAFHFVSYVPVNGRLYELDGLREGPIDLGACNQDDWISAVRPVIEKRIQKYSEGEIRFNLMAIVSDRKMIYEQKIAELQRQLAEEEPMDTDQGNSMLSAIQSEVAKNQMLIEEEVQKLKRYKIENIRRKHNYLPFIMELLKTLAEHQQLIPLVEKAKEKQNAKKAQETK
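System: Proteasome-associated human UCH37 deubiquitinase; Input: 0.15 nM proteasome in added enzyme buffer; Also added: Ub-AMC substrate from 1 µM stock; Incubation: 30 min compound-proteasome preincubation then 25 min substrate reaction, room temperature; Detection: fluorescence, ex 355 nm, em 460 nm; Read-out: % inhibition of Ub-AMC cleavage fluorescence; Benchmarks: no-proteasome and no-compound wells.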
Ecoli growth = E. coli growth inhibition | OD600 absorbance (no concentration beside the values) | Escherichia coli growth, OD600, 23 h; stronger effect = lower value | 330,000 tested, 0.21% active;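 active means OD600 absorbance below the run mean of sample wells minus 3.6 SD, in any replicate, cut at about 0.56 in these data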;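 further: stock transfer was 300 nL into about 60 µL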
Bfl-1 A1 inh = inhibitors of the anti-apoptotic protein A1, read as caspase activation; MEF A1-2A-BIM cells, Caspase-Glo 3/7 luminescence, 3 h; percent of clofoctol response, vehicle zero; caspase activation, % (concentration not given with the values); 330,000 tested, 0.066% active; AID 2462;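 active means over half of replicate activation scores above 10%, or exactly half above 10 with the replicate mean above 10; inconclusive means replicate mean below 10 yet half the replicates above 10; inactive means over half of replicates below 10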;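 further: wells of about 30 µL received 50 nL stock; many hits fall short of the cut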
Beta2AR agonist = human beta-2 adrenergic receptor agonism by FAP. Am2.2-beta2AR cells, FAP receptor internalization, flow cytometry; reference of the scale not given here. response, % (no concentration beside the values). 340,000 tested, 0.43% active. P07550;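 active means response above a set limit, near 3 SD of response in nonfluorescent compounds, cut at about 42% in these data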;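 further: stock transfer was 100 nL into about 11 µL; a reference agonist was the positive control; negative values mostly stem from fluorescent compounds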
Target sequence (P07550 whole entry, looked up): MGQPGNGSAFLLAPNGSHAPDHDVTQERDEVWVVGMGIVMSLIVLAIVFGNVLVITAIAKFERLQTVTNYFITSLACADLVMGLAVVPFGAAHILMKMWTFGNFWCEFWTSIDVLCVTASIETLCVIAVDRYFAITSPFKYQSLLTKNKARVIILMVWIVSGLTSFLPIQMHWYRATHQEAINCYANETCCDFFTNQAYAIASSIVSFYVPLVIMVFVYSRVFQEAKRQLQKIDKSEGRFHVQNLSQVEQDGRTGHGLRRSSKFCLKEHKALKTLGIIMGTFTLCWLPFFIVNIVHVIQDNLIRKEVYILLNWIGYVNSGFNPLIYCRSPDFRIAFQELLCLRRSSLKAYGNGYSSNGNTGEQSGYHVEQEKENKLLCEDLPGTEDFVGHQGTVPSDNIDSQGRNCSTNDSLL
HNF4A DNA FP = change in binding of human HNF4 alpha to DNA; P41235; HNF4a-FITC DNA binding, fluorescence polarization, 1 h; activity change, % at 10 µM; 360,000 tested, 0.3% active; AID 1224865; in the data active means activity change above about 30%, passing the limit was not always enough;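 further: controls were the assay level and a saturating level of protein; the project sought stronger binding though the title names inhibitors; some compounds called inactive have numbers as strong as hits; positive values seem to mean higher polarization but the record does not say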
An asterisk follows results filed as active; ? = inconclusive; · = not tested or not shown; & = joins results of further samples.

SMILES | Vif TR-FRET | LANA-H2A inh | UCH37 DUB inh | Ecoli growth | Bfl-1 A1 inh | Beta2AR agonist | HNF4A DNA FP
CC(C)(C)OC(=O)[C@H](Cc1ccccc1)NC(=O)c1nc[nH]c1C(=O)N1CCNCC1 | · | -1.4 | 6.1 | · | 0.6 | -5 | -1.3
N/C(=N\OC(=O)c1ccc2ccccc2c1)c1cccc([N+](=O)[O-])c1 | · | -1.1 | · | · | -0.9 | -3 | 1.7
O=C(CCCOc1ccccc1)N1CCN(S(=O)(=O)c2cccs2)CC1 | 3%&1% | -4.3 | 2.4 | 0.77 | 0.4 | -3 | -0.9
CC(=O)Nc1ccc2sc(C)nc2c1 | 4% | -5.0 | 5.7 | 0.68 | 0.3 | -4 | 2.1
NC(N)=N/N=C/c1ccc(OCc2ccccc2)c(OCc2ccccc2)c1 | · | 3.7 | · | · | 0.0 | 30 | 3.9
CCCN1CC23C=CC(O2)C(C(=O)O)C3C1=O (stereo not drawn) | 1% | 2.3 | 5.4 | 0.74 | 0.0 | 3 | 4.5
Cc1c(Cl)cccc1NC(=O)CC(C(=O)O)C1CCCO1 (stereo not drawn) | 5% | 6.3 | 1.3 | 0.7 | 1.9 | -6 | 5.4
Cc1nn(C)c(NC(=O)c2ccc(Cl)cc2Cl)c1Br | -2% | 0.7 | 2.8 | 0.65 | ? | 10 | 0.7
Cc1cc2oc(=O)cc(CN3CCN(Cc4ccccc4)CC3)c2cc1C | -1% | · | 0.6 | 0.65 | · | -10 | -1.3
CCn1c(Cc2ccc(OC)cc2)nnc1SCC(=O)N1CCN(c2ccccc2)CC1 | -2%&-2% | 0.1 | -0.2 | 0.71 | 1.0 | -4 | -6.3
COC(=O)[C@@]1(Cc2ccc(F)cc2)[C@H]2c3cc(C(=O)N(C)C)n(Cc4c(CO)[nH]cc(C)c4=O)c3C[C@H]2CN1C(=O)c1ccccc1 | 2% | 5.0 | -0.4 | · | 0.8 | · | ·
Cc1ccccc1-n1c(C)cc(/C=N/Nc2ccc([N+](=O)[O-])cn2)c1C | 7% | -0.6 | · | · | 0.5 | 11 | 11
COc1ccc(C2CC(c3ccccc3)=NN2C(=O)COC(=O)C2(C)CC2(Cl)Cl)cc1 (stereo not drawn) | 5% | 1.6 | 0.8 | 0.72 | 1.0 | -6 | 2.1
Cc1nnc(SCC(=O)N2CCc3ccccc32)s1 | ? | -8.4 | -0.3 | 0.71 | -1.0 | -5 | -2.3
Cc1cc2ccccn2c1C(=O)c1ccncc1 | -4% | -10 | 2.3 | 0.68 | 0.8 | -1 | -4.6
CN(CC(=O)Nc1ccccc1Br)C(=O)CNC(=O)Cc1cccc2ccccc12 | · | -4.0 | 0.8 | 0.69 | 1.1 | -5 | 4.1
Cc1cccc(OCC(=O)NCC(=O)N/N=C/c2c(C)[nH]c3ccccc23)c1 | -4% | 1.9 | · | · | -0.4 | 8 | -14
O=C(NC1CCCCC1)C1COc2ccccc2O1 (stereo not drawn) | 5% | 2.2 | -0.7 | 0.64 | -1.1 | 1 | -4.4
O=C(CN1C(=O)/C(=C/c2ccco2)SC1=S)NC1CCS(=O)(=O)C1 (stereo not drawn) | · | -0.8 | 10 | 0.71 | 0.2 | -7 | -20
COc1ccc(N2C(=O)CCC(C(=O)NCc3cccnc3)C2c2ccc(OC)c(OC)c2)cc1 (stereo not drawn) | ? | 1.1 | 1.3 | 0.7 | 1.1 | 2 | -0.6
CN(C)CCCN(C(=O)c1ccc(S(=O)(=O)N(C)Cc2ccccc2)cc1)c1nc2c(F)cccc2s1 | · | 2.8 | 1.8 | 0.71 | -1.4 | 19 | -0.1
COc1ccc(NC(=O)CN(c2ccccc2OC)S(=O)(=O)c2cccs2)cc1Cl | 0% | 4.6 | 0.5 | 0.73 | 0.5 | -3 | 3.6
CCN(CC)c1ccc2cc(S(=O)(=O)c3ccc(C)cc3)c(=O)oc2c1 | 1% | 4.2 | -59 | 0.75 | 0.6 | -3 | 50*
COc1cc(/C=N/NC(=O)CNS(=O)(=O)c2ccc(C)cc2)cc(OC)c1OC | · | 0.3 | · | · | 0.3 | 7 | -1.6
COC(=O)CCCC(=O)N1CCC(CCC(=O)NCc2ccc(F)cc2)CC1 | · | 1.8 | 4.8 | 0.7 | -1.0 | 4 | 1.6
Cc1ccc(-c2csc3ncn(CC(N)=O)c(=O)c23)cc1C | · | -8.0 | 2.4 | 0.69 | -1.4 | 6 | 0.2
CCc1ccc(OCC(=O)NC(=S)Nc2ccc(C)cc2C)c(Br)c1 | 1% | -4.7 | 1.9 | 0.68 | -0.4 | 5 | 0.3
CCOC(=O)c1[nH]c(C)c(C(=O)NC(C)CC)c1C (stereo not drawn) | 0% | -1.3 | -0.1 | 0.69 | 0.2 | 2 | 0.3
COc1ccc(C2C(C#N)=C(N)N(c3sc4c(c3C#N)CCCC4)C3=C2C(=O)CC(C)(C)C3)cc1OC (stereo not drawn) | 5% | 1.2 | 4.5 | 0.7 | 0.3 | 5 | 2.0
Cc1c(C)c2c(OCC(=O)N3CCC(C(N)=O)CC3)cc3c(c2oc1=O)CCC(C)(C)O3 | · | 6.2 | -463 | 0.71 | -0.9 | -26 | 4.3
COc1ccccc1CNC(=O)C(=O)NCC1OCCN1S(=O)(=O)c1ccc(Br)cc1 (stereo not drawn) | · | -4.0 | 0.9 | 0.65 | 1.6 | 3 | 0.8
O=C(CCn1c(=O)c2sccc2n(CC(=O)OCc2ccccc2)c1=O)NCc1ccco1 | 2% | -2.6 | 3.1 | 0.68 | -1.1 | -10 | 1.6
COc1cc(C=Nc2cccc(C)c2)c(O)c([N+](=O)[O-])c1 | 9% | -2.0 | 8.2 | 0.67 | 0.6 | 2 | -2.5
COc1ccc(CCN2CN(S(=O)(=O)c3ccc(OC)cc3)c3nc4ccccc4nc32)cc1 | 14% | -1.4 | -6.7 | 0.78 | 0.2 | -2 | 1.5
CC(=O)Nc1ccc(NC(=O)[C@@H](NC(=O)N2C[C@H]3C[C@@H](C2)c2cccc(=O)n2C3)C(C)C)cc1 | · | -1.1 | -1.0 | 0.68 | -0.1 | 3 | 1.3
CC(OC(=O)c1ccc2c(c1)NC(=O)CS2)C(=O)c1ccc(F)cc1 (stereo not drawn) | -5% | 4.0 | 0.7 | 0.7 | 0.1 | 2 | -1.3
CCNC(=S)Nc1ccc(Cl)c(C(F)(F)F)c1 | 0% | -3.9 | 4.7 | 0.6 | 0.2 | 3 | -1.2
CCCn1c(N2CCC(Cc3ccccc3)CC2)nc2c1c(=O)[nH]c(=O)n2C | -4% | -3.0 | -0.9 | 0.73 | -0.5 | -4 | -0.6
Cc1ccc(S(=O)(=O)N2CCCC2C(=O)NCc2ccncc2)cc1 (stereo not drawn) | · | -1.1 | 3.7 | 0.68 | -0.2 | 7 | 2.8
O=C(Nc1nnc(-c2ccco2)o1)c1ccc([N+](=O)[O-])s1 | 7% | -2.6 | 8.8 | 0.64 | -5.2 | 3 | 7.5
COc1cc(/C=N/n2c(-c3n[nH]c4c3CCC4)n[nH]c2=S)ccc1O | -1% | -0.9 | · | · | -0.5 | 3 | -3.3
Fc1ccccc1CSc1ncnc2sc3c(c12)CCCC3 | · | 2.6 | 6.8 | 0.7 | -0.1 | -13 | 2.7
CCOc1ccccc1N(CC(=O)N1CCc2ccccc2C1)S(C)(=O)=O | -4% | 0.4 | 1.6 | 0.69 | 2.5 | 0 | -3.8
CC(C)c1ccccc1NC(=O)c1cccnc1 | 3% | -3.3 | -0.5 | 0.72 | -0.6 | -4 | 4.8
CCc1ccccc1NC(=S)NN | 28% | -1.8 | · | · | 0.3 | · | ·
Cc1cc(-c2ccc([N+](=O)[O-])cc2)cc(C)n1 | 4% | · | 1.8 | 0.62 | · | -1 | 3.7
Cc1ccc(C(=O)Nc2ncc3c(Cl)cccc3n2)cc1 | 8% | 2.2 | 0.3 | 0.73 | -10 | 3 | 1.2
O=C(Nc1ncc(S(=O)(=O)c2ccc([N+](=O)[O-])cc2)s1)c1ccccc1F | 2% | -0.4 | 3.2 | 0.7 | -1.4 | 4 | -1.2
COc1ccc(N2CC(O)=C(c3nc4ccccc4s3)C2=N)cc1 | 1% | 0.9 | -3.7 | 0.7 | -0.4 | -6 | 2.6
Cc1cc(C)cc(N2CC(C)(C)C2=O)c1 | -2% | 2.2 | 2.0 | 0.64 | 0.9 | -2 | -0.8
O=C(O)C1CCCCC1C(=O)N1CCN(S(=O)(=O)c2ccc(F)cc2)CC1 (stereo not drawn) | · | -2.0 | 0.5 | 0.72 | 0.6 | -2 | 1.9
CC(C)c1nc2sc3c(=O)[nH]cnc3c2c2c1CCC2 | -12% | -1.5 | -69 | 0.66 | -0.4 | -6 | 1.8
CCOC(=O)c1ccc(N2C(=O)CC(C(=O)OC)=C2C)cc1 | 7% | -1.4 | 0.2 | 0.74 | 1.0 | 3 | 1.9
CCCCN(C(=O)/C=C/c1ccc(OC)cc1)C1CCS(=O)(=O)C1 (stereo not drawn) | 0% | 1.3 | 1.0 | 0.66 | -0.2 | 5 | -6.1
COc1ccc(C2CC(=O)c3cnc(NC(=O)c4ccccc4)nc3C2)c(OC)c1 (stereo not drawn) | 0% | 0.2 | -0.6 | 0.67 | -0.1 | -2 | -3.1
S=C(Nc1ccc(Cc2ccncc2)cc1)Nc1cccc(Cl)c1 | -9% | -0.6 | -0.3 | 0.64 | 0.7 | -8 | 3.2
O=C(COc1ccc2c(-c3ccccc3)cc(=O)oc2c1)Nc1cccnc1 | · | 2.2 | -23 | 0.67 | 0.3 | 23 | 11
CC(=O)Oc1cccc(N2C(=O)CC(Nc3ccc(N4CCOCC4)cc3)C2=O)c1 (stereo not drawn) | ? | 1.3 | -0.2 | 0.82 | -0.2 | -3 | -0.5
CCS(=O)(=O)NCc1ccc2c(c1)cc(C)n2C | 15% | -1.4 | 1.5 | 0.67 | 0.4 | 1 | 1.1
Cn1c(CCC(=O)Nc2cc(S(C)(=O)=O)ccc2Cl)nc2cc(S(=O)(=O)N3CCOCC3)ccc21 | -3% | 1.6 | -1.1 | 0.7 | 1.1 | -8 | 1.9
Other compounds follow:
SMILES | Vif TR-FRET | LANA-H2A inh | UCH37 DUB inh | Ecoli growth | Bfl-1 A1 inh | Beta2AR agonist | HNF4A DNA FP
Cc1ccc(C(=O)N2CCCc3ccccc32)c(F)c1F | · | -6.9 | 0.1 | 0.63 | 0.3 | 3 | -6.1
CC(CCc1ccccc1)NC(=O)C(Cc1ccccc1)NC(N)=O (stereo not drawn) | -4% | -1.0 | 0.0 | 0.53* | 0.0 | 1 | -3.9
COc1ccc(S(=O)(=O)N2CCC(Cc3ccccc3)CC2)cc1C(N)=O | · | -0.1 | 2.7 | 0.62 | 0.6 | -2 | -3.5
CCCc1cc(C(=O)NCCc2ccc(OC)c(OC)c2)no1 | 3% | 8.5 | 4.3 | 0.79 | 0.5 | -6 | 1.7

At a glance, part of the list above.
SMILES | Vif TR-FRET | LANA-H2A inh | UCH37 DUB inh | Ecoli growth | Bfl-1 A1 inh | Beta2AR agonist | HNF4A DNA FP
CC(CCc1ccccc1)NC(=O)C(Cc1ccccc1)NC(N)=O (stereo not drawn) | -4% | -1.0 | 0.0 | 0.53* | 0.0 | 1 | -3.9
COc1ccc(S(=O)(=O)N2CCC(Cc3ccccc3)CC2)cc1C(N)=O | · | -0.1 | 2.7 | 0.62 | 0.6 | -2 | -3.5
CCCc1cc(C(=O)NCCc2ccc(OC)c(OC)c2)no1 | 3% | 8.5 | 4.3 | 0.79 | 0.5 | -6 | 1.7

Compound activity: PubChem BioAssay, several laboratories
